Assay outcomes: PubChem BioAssay, National Center for Advancing Translational Sciences (NCATS)
miR-21 reporter = qHTS Assay for Modulators of miRNAs and/orActivators of miR-21. HeLa miR-21 FLuc reporter, luciferase, 48 h. Potency, µM (highest dose often 38.3 µM), inactives show at the highest dose reporter change, positive = more light. 340,000 tested, under 10 active. AID 2288, 2010; active = well fitted rising curve with a large enough effect; inconclusive = small, poorly fitted or top-dose-only effect; inactive = no such curve, though single readings can be large or run the other way;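 further: % of control where 0% means no effect; miR-21 action dims this reporter so a rising signal means less miR-21 action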
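Luminescence from a firefly luciferase reporter carrying a miR-21 binding site downstream, stably expressed under a CMV promoter in HeLa cells that make miR-21 endogenously, reports miRNA modulation after 48 h compound exposure up to approximately 40uM final.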
Active calls of the source: *.

Cc1cc(C)cc(C(=O)n2nc(C)c(S(=O)(=O)N3CCOCC3)c2C)c1 was read as miR-21 reporter 7%.
Screening Cc1cccc(C(=O)NC2(C(F)(F)F)N=C(c3ccccc3)N(Cc3ccccc3)C2=O)c1 (stereo not given) returned miR-21 reporter -4%.
For CCc1ccccc1NC(=O)Cc1ccc(-n2c(C)nc3cccnc32)cc1 the results were miR-21 reporter 20%.
For CCN1CCOC(=O)C1CC(=O)Nc1cc(C)cc(C)c1 (stereo not given) the results were miR-21 reporter -27%.
Screening O=C(OCc1cc(=O)n2c3c(sc2n1)CCCC3)c1cccc(NC(=O)c2ccccc2F)c1 returned miR-21 reporter -48%.
For CCOC(=O)C1=C(CS(=O)(=O)c2ccc(F)c(C)c2)NC(=O)NC1c1ccccc1OC (stereo not given) the results were miR-21 reporter 7%.
Screening CCN(CC)C(=O)Cn1c(=O)n(Cc2ccc(C(=O)NCCc3ccc(OC)c(OC)c3)cc2)c(=O)c2ccccc21 returned miR-21 reporter -2%.
`CCC(=O)N1CCc2cc(S(=O)(=O)CCC(=O)N3CCN(c4cccc(Cl)c4)CC3)ccc21` gave miR-21 reporter 11%.
`COc1ccc(C(F)(F)F)cc1NC(=O)c1sc2nc(-c3cccs3)ccc2c1N` gave miR-21 reporter -12%.
Screening CCOC(=O)C1CCN(C(c2cccc(F)c2)c2c(O)cc(C)n(Cc3ccco3)c2=O)CC1 (stereo not given) returned miR-21 reporter -1%.
For COc1ccccc1NC(=O)Cn1c(=O)n(Cc2ccccc2)c(=O)c2c3c(sc21)CN(C(C)=O)CC3 the results were miR-21 reporter 0%.
`CC(C)(C)C(=O)Nc1ccc2nc(SCC(=O)N3CCc4ccccc43)sc2c1` gave miR-21 reporter 19%.
`O=C(NCc1ccccc1Cl)C(=O)NCC(c1cccs1)S(=O)(=O)c1cccs1` (stereo not given) gave miR-21 reporter 8%.
For CC(C)CNC(=O)C(=O)Nc1c2c(nn1-c1ccccc1)CS(=O)(=O)C2 the results were miR-21 reporter -7%.
COCCCn1c(SCC(=O)Nc2ccccc2OC)nc2c(sc3ccccc32)c1=O was read as miR-21 reporter 21%.
For COc1cc(NC(=O)c2ccc3oc(=O)c(S(=O)(=O)c4ccccc4)cc3c2)cc(OC)c1 the results were miR-21 reporter 7%.
CCOc1ccc(C(=O)NCC(c2ccc3c(c2)OCO3)N2CCN(c3ccccc3F)CC2)cc1 (stereo not given) was read as miR-21 reporter 23%.
For CCc1ccc(NC(=O)c2ccc(F)c(S(=O)(=O)N3CCC(C)CC3)c2)cc1 the results were miR-21 reporter -2%.
`CCc1ccccc1NC(=O)CSc1ncc(S(=O)(=O)c2ccc(C(C)C)cc2)c(N)n1` gave miR-21 reporter 7%.
`CCOC(=O)c1ccccc1NC(=O)Cn1ccn2nc(-c3ccc(OCC)cc3)cc2c1=O` gave miR-21 reporter 0%.

In the list so far, these have a CF3 group.
Screening Cc1cccc(C(=O)NC2(C(F)(F)F)N=C(c3ccccc3)N(Cc3ccccc3)C2=O)c1 (stereo not given) returned miR-21 reporter -4%.
`COc1ccc(C(F)(F)F)cc1NC(=O)c1sc2nc(-c3cccs3)ccc2c1N` gave miR-21 reporter -12%.

(cont.)
COc1cn(CC(=O)Nc2ccc(F)cc2)c(CN2CCCCC2)cc1=O was read as miR-21 reporter -3%.
`COc1ccccc1Nc1cc(C(=O)NC2CCC(C)CC2)c2ccccc2n1` (stereo not given) gave miR-21 reporter -1%.
CCc1ccc(C2c3c(oc4ccc(F)cc4c3=O)C(=O)N2c2nc(C)c(C(=O)OC)s2)cc1 (stereo not given) was read as miR-21 reporter 1%.
`O=C(NC1CCCCC1)c1ccc(CSc2nc3cccnc3n2Cc2ccccc2)cc1` gave miR-21 reporter -1%.
For CCCSCCCNC(=O)CN1C(=O)COc2ccc(S(=O)(=O)N3CCCCCC3)cc21 the results were miR-21 reporter 3%.
Screening Cc1ccc(S(=O)(=O)c2cn(Cc3ccccc3)c3cc(N4CCOCC4)c(F)cc3c2=O)cc1 returned miR-21 reporter 5%.
Cc1ccc(Cl)cc1NC(=O)Cn1cc2c(n1)CCCCC2 was read as miR-21 reporter -15%.
Screening CNC(=O)C1CCC(Cn2c(=O)c3sccc3n(CC(=O)Nc3cc(C)cc(C)c3)c2=O)CC1 (stereo not given) returned miR-21 reporter -1%.
`CCOc1ccc(CCNC(=O)C(CC(C)C)N2Cc3ccccc3C2=O)cc1OCC` (stereo not given) gave miR-21 reporter 14%.
Cc1ccc(-c2nc(CNC(=O)Nc3ccccc3)c(C)o2)cc1 was read as miR-21 reporter -1%.
CCC(=O)OCCCNc1nc(-c2ccc(Cl)cc2)nc2ccccc12 was read as miR-21 reporter -15%.
For Cc1nn(C(=O)c2ccccc2)c(C)c1S(=O)(=O)N1CCOCC1 the results were miR-21 reporter -2%.
Screening COc1c(C)cc(Br)cc1C(=O)Nc1ccc(-c2nc3ncccc3o2)cc1 returned miR-21 reporter -10%.
`CCC(=O)Nc1ccc(CC)cc1-c1nc2ccccc2n(CC(=O)Nc2ccccc2C)c1=O` gave miR-21 reporter 0%.
`COc1cc2cc(CNc3ccccc3)c(=O)n(CC(=O)Nc3cccc(Cl)c3C)c2cc1OC` gave miR-21 reporter 3%.
For COc1ccccc1NC(=O)CSc1oc(-c2ccccc2)nc1S(=O)(=O)c1ccc(C)cc1 the results were miR-21 reporter 13%.
`COc1ccccc1N(CC(=O)Nc1cc(C)cc(C)c1)S(C)(=O)=O` gave miR-21 reporter 4%.
Screening Cc1c(-c2cccc(NC(=O)c3ccc(F)c(F)c3)c2)nc2ncccn12 returned miR-21 reporter -6%.
Screening CCNc1c(NC(=O)c2ccccc2OCC)c(=O)oc2ccccc12 returned miR-21 reporter -4%.
`CCc1cccc(NC(=O)c2sc3nc[nH]c(=O)c3c2C)c1` gave miR-21 reporter -38%.

Molecules listed so far that contain an aryl thioether with sulfur outside any ring (five):
`CC(C)(C)C(=O)Nc1ccc2nc(SCC(=O)N3CCc4ccccc43)sc2c1` gave miR-21 reporter 19%.
COCCCn1c(SCC(=O)Nc2ccccc2OC)nc2c(sc3ccccc32)c1=O was read as miR-21 reporter 21%.
`CCc1ccccc1NC(=O)CSc1ncc(S(=O)(=O)c2ccc(C(C)C)cc2)c(N)n1` gave miR-21 reporter 7%.
`O=C(NC1CCCCC1)c1ccc(CSc2nc3cccnc3n2Cc2ccccc2)cc1` gave miR-21 reporter -1%.
For COc1ccccc1NC(=O)CSc1oc(-c2ccccc2)nc1S(=O)(=O)c1ccc(C)cc1 the results were miR-21 reporter 13%.

Next section:
COc1ccc(N(C(=O)c2ccccc2C)S(=O)(=O)c2ccc(C)cc2)cc1 was read as miR-21 reporter 21%.
Screening Cc1ccc(NC(=O)c2c(C)oc3ccc(O)c(CN4CCCCC4)c23)c(C)c1 returned miR-21 reporter -4%.
`CCc1nn(CC(=O)Nc2ccc(N(CC)CC)cc2C)c(=O)c2cc3sccc3n12` gave miR-21 reporter 2%.
COc1ccc(CCNC(=O)c2cnc3sc(N4CCOCC4)nn3c2=O)cc1 was read as miR-21 reporter -5%.
CCN1CCN(Cc2c(O)ccc3c(C)c(-c4ccc(OC)cc4)c(=O)oc23)CC1 was read as miR-21 reporter -6%.
`Cc1ccc2nc(-c3cccc(NC(=O)c4ccc(Br)o4)c3)oc2c1` gave miR-21 reporter -30%.
For COc1c(Cl)cc(Cl)cc1CNCCSc1nnnn1C the results were miR-21 reporter -9%.
CCN(CC)CCNC(=O)Nc1ccc2c(c1)N(Cc1ccccc1)C(=O)c1ccccc1S2 was read as miR-21 reporter 11%.
Cc1ccsc1CN(C(=O)COc1ccc(Br)cc1)C1CCS(=O)(=O)C1 (stereo not given) was read as miR-21 reporter -1%.
Screening Cc1ccc(CNC(=O)CCCn2nc(C)n3c(cc4sccc43)c2=O)cc1 returned miR-21 reporter -5%.
Screening CCc1ccccc1N(CC)C(=O)c1c(C)oc2ncnc(N3CCOCC3)c12 returned miR-21 reporter -15%.
Screening CCC(C)NC(=O)CN1C(=O)c2cccnc2Sc2ccccc21 (stereo not given) returned miR-21 reporter -7%.
Screening Cc1ccc(OCCSc2nc3ccccc3n2CCC(=O)O)cc1C returned miR-21 reporter -15%.
`COc1ccccc1N1CCN(C(=O)Cn2ncc3c2-c2cc(C)ccc2OC3)CC1` gave miR-21 reporter inconclusive.
For COCCNc1ccc(-c2nc(-c3ccco3)no2)cc1[N+](=O)[O-] the results were miR-21 reporter -4%.
CCOc1ccc(NC(=O)Cn2c(C)cc3ccccc3c2=O)cc1 was read as miR-21 reporter -22%.
Screening Cc1oc(-c2ccc(C(=O)NCCC(C)C)cc2)nc1CS(=O)(=O)c1ccccc1 returned miR-21 reporter -3%.
For COc1ccc(S(=O)(=O)N(Cc2nc(-c3ccc(C)cc3)no2)C2CCCCC2)cc1 the results were miR-21 reporter 1%.
`CCOc1ccc(N(CC)S(=O)(=O)N2CCCC(C(=O)Nc3ccc(C(C)=O)cc3)C2)cc1` (stereo not given) gave miR-21 reporter 7%.
Cn1c(=O)cc(SCC(=O)NCCc2ccc(Cl)cc2)c2cc(Cl)ccc21 was read as miR-21 reporter 0%.
O=C(Cn1ncc2c3ccccc3n(Cc3ccc(Cl)cc3)c2c1=O)NCc1ccccn1 was read as miR-21 reporter -3%.
CC(=O)N1CCCc2cc(S(=O)(=O)N(C)CC(=O)Nc3ccc(F)c(Cl)c3)ccc21 was read as miR-21 reporter inconclusive.
Screening Cc1ccc(S(=O)(=O)N2CCCc3cc(NS(=O)(=O)c4cccc(Cl)c4)ccc32)cc1 returned miR-21 reporter 22%.
For Cc1cc(C)c(S(=O)(=O)NCCc2cc3c(C)ccc(C)c3[nH]c2=O)c(C)c1 the results were miR-21 reporter -1%.
`COc1ccc(NC(=O)C2=C(C)C(=O)OC23CCN(C(C)C)CC3)cc1Cl` gave miR-21 reporter 0%.
O=C(NCC(c1ccc(Cl)cc1)N1CCOCC1)c1ccccc1F (stereo not given) was read as miR-21 reporter -6%.
`COc1cccc(N2CCN(c3ncnc4onc(-c5ccc(Cl)cc5)c34)CC2)c1` gave miR-21 reporter 9%.
COc1ccc(-n2c(=O)c3c(c4cc(OC)ccc4n3C)n(CC(=O)N3CCCC3)c2=O)cc1 was read as miR-21 reporter 2%.
Cc1cc2c(n1-c1ccc(C(=O)NCCc3ccc(Cl)cc3)cc1)CCC(C)C2 (stereo not given) was read as miR-21 reporter 16%.
`CC(Oc1ccccc1)C(=O)N1CCN(Cc2cc(=O)n3nc(-c4ccccc4Cl)sc3n2)CC1` (stereo not given) gave miR-21 reporter 5%.
`Cc1ccc(-c2nc3c4ccccc4[nH]c(=O)n3n2)cc1` gave miR-21 reporter -64%.
O=C(Nc1ccccc1OCc1cc(=O)n2ccccc2n1)c1cccc(Br)c1 was read as miR-21 reporter 0%.
COc1ccc(Cl)cc1NC(=O)CSc1nc2ccccc2nc1N1CCCCC1 was read as miR-21 reporter -5%.
Cc1ccc(S(=O)(=O)N(CC(=O)Nc2ccc(C(C)C)cc2)Cc2ccccc2)cc1 was read as miR-21 reporter 10%.
For COc1ccc2c(c1)c1c(c(=O)n(-c3ccc(OC)c(OC)c3)c(=O)n1Cc1ccccc1C)n2C the results were miR-21 reporter 0%.
Cc1ccc(C)c(N2CCN(c3c(CN4CCCC4)c(=O)oc4ccccc34)CC2)c1 was read as miR-21 reporter 4%.
COc1ccc(N2C(=O)C(CC(=O)Nc3ccc(F)cc3)N(CCC3=CCCCC3)C2=O)cc1 (stereo not given) was read as miR-21 reporter 5%.
`COc1ccccc1-c1noc(CCCC(=O)Nc2cccc(C(F)(F)F)c2)n1` gave miR-21 reporter -4%.
CCOC(=O)c1c(C)[nH]c(C)c1S(=O)(=O)N1CCC(C(=O)NCc2ccccc2Cl)CC1 was read as miR-21 reporter -6%.
COc1ccc(NC(=O)c2c(NC(=O)c3cccc(C)c3)sc3c2CCC3)cc1 was read as miR-21 reporter 1%.
CCC(Nc1ccc(-c2nc(-c3cccnc3)no2)cc1[N+](=O)[O-])c1ccccc1 (stereo not given) was read as miR-21 reporter -2%.
CCOc1ccc(Oc2nc(NCC(C)C)nc(N3CCOCC3)n2)nn1 was read as miR-21 reporter -13%.
Screening CC[C@@H](C)[C@@H](C(=O)Nc1ccc(C)cc1)N1Cc2ccccc2C1=O returned miR-21 reporter 4%.
For Cc1cccc(Cn2nnc3c(=O)[nH]c(C4CCN(C(=O)c5ccc(F)cc5)CC4)nc32)c1 the results were miR-21 reporter -3%.
Screening COc1ccc(CCNC(=O)c2cc3n(n2)CCCN(Cc2ccc(C)cc2)C3=O)cc1OC returned miR-21 reporter inconclusive.
Screening CCc1ccc(NC(=O)c2ccc3[nH]c(C)c(C)c3c2)cc1 returned miR-21 reporter -33%.
For CC(C)CCNC(=O)c1cc(-c2ccc(Br)s2)nc2ccccc12 the results were miR-21 reporter 3%.
Screening CCCOc1ccc(-c2nn(-c3ccccc3)cc2C2NC(=O)NC(C)=C2C(=O)OC(C)C)cc1 (stereo not given) returned miR-21 reporter 17%.
`COc1ccc(CNC(=O)c2cc3cc4cc(OC)ccc4nc3o2)cc1` gave miR-21 reporter -17%.
O=C(CCn1cnc2onc(-c3ccc(F)cc3)c2c1=O)N1CCN(c2cccc(Cl)c2)CC1 was read as miR-21 reporter 8%.
For CCc1nn(CCCC(=O)NCc2ccc(OC)c(OC)c2)c(=O)c2cc3occc3n12 the results were miR-21 reporter -27%.

Only part of the results is shown; the hit share may differ from the screen's.
